# HNF4A DNA FP: change in binding of human HNF4 alpha to DNA | P41235 | HNF4a-FITC DNA binding, fluorescence polarization, 1 h | activity change, % at 10 µM | 0.3% of 360,000 active | AID 1224865; in the data active = activity change above about 30%, passing the limit was not always enough;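 also: controls were the assay level and a saturating level of protein; the project sought stronger binding though the title names inhibitors; some compounds called inactive have numbers as strong as hits; positive values seem to mean higher polarization but the record does not say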
# Target sequence (P41235 whole entry, looked up): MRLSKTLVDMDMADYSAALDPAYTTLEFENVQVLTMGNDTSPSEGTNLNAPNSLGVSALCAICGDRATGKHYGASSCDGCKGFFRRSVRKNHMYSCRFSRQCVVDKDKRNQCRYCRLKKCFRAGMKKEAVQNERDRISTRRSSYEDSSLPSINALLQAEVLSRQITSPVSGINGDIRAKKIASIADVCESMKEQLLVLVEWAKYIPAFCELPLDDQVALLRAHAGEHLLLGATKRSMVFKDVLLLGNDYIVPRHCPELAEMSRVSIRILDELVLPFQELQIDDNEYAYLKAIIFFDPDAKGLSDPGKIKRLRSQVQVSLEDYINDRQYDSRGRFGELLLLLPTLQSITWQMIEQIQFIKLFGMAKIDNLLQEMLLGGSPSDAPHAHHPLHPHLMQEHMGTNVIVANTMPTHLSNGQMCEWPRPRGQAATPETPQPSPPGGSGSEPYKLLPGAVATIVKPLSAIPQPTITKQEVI
# B2AR ag: human beta-2 adrenergic receptor agonism by FAP | Am2.2-beta2AR cells, FAP receptor internalization, flow cytometry; reference of the scale not given here | response, % (test concentration not listed) | 0.43% of 340,000 active;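 active = response above a set limit, near 3 SD of response in nonfluorescent compounds, cut at about 42% in these data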;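 also: stock transfer was 100 nL into about 11 µL; a reference agonist was the positive control; negative values mostly stem from fluorescent compounds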
# Target sequence (P07550 whole entry, looked up): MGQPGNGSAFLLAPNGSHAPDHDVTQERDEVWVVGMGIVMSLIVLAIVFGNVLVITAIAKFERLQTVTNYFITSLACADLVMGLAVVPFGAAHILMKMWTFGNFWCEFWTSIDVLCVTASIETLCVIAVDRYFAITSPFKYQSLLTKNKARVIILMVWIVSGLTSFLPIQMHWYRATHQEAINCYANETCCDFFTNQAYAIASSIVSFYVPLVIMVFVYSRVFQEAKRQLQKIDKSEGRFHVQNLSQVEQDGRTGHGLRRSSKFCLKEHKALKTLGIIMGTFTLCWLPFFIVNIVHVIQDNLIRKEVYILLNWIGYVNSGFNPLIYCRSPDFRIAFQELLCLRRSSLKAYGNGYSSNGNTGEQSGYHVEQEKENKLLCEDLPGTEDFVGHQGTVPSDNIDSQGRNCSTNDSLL
# UCH37 inh: human UCH37 deubiquitinating enzyme inhibition; 0.33% of 330,000 active; inhibition, % (concentration not given with the values); purified proteasome/UCH37, Ub-AMC cleavage fluorescence; Q9Y5K5;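 active = mean of two replicates above 20%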;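 also: 0% = compound-free wells with enzyme and 100% = wells lacking proteasome; stock transfer was 100 nL into about 20 µL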
#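 Material: Human UCH37 enzyme supplied as purified proteasome complex | Schedule: 30 min compound-proteasome preincubation then 25 min substrate reaction, room temperature | Detection: AMC fluorescence from Ub-AMC cleavage, excitation 355 nm, emission 460 nm | Benchmarks: Wells without proteasome as full block, compound-free enzyme plus substrate as uninhibited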
# Bfl-1 A1 inh: inhibitors of the anti-apoptotic protein A1, read as caspase activation; MEF A1-2A-BIM cells, Caspase-Glo 3/7 luminescence, 3 h; percent of clofoctol response, vehicle zero; caspase activation, % (test concentration not listed); 0.066% of 330,000 active; AID 2462;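 active = over half of replicate activation scores above 10%, or exactly half above 10 with the replicate mean above 10; inconclusive = replicate mean below 10 yet half the replicates above 10; inactive = over half of replicates below 10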;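 also: wells of about 30 µL received 50 nL stock; many hits fall short of the cut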
# LANA-H2A inh: blocks KSHV LANA binding to histone H2A/H2B; cell-free LANA-H2A/H2B peptide, fluorescence polarization; Q9QR71; inhibition, % (no concentration beside the values); 0.6% of 320,000 active; in the data active = inhibition mostly above about 10%, no sharp cut-off; inactive = mostly below about 6.7%;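 also: stock transfer was 7.5 nL into about 10 µL; 0% = median of vehicle wells and 100% = median of positive control wells; one replicate is shown; the record names a cut of 25% in any replicate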
# Ecoli growth: blocks Escherichia coli growth. OD600, 23 h; stronger effect = lower value. OD600 absorbance (no concentration beside the values). 0.21% of 330,000 active;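 active = OD600 absorbance below the run mean of sample wells minus 3.6 SD, in any replicate, cut at about 0.56 in these data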;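 also: stock transfer was 300 nL into about 60 µL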
# Vif TR-FRET: HIV-1 Vif–A3G interaction blockers – biochemical, TR-FRET, GST-Vif 1-94, biotin-A3G peptide, dose response retest, primary screen (AID 1117319) | inhibition, %, or IC50 in µM where a hit was titrated | TR-FRET GST-Vif / biotin-A3G peptide binding; higher % means a stronger effect; test concentration not given here; strong numbers were not always called active | 0.57% of 260,000 active;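 active = above the screen mean plus three standard deviations and confirmed in dose response; inconclusive = results disagree or hit not tested in dose response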;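 also: Vif residues 1-94 fused to GST binding biotinylated APOBEC3G peptide 110-148; 0% = full assay without inhibitor and 100% = GST in place of GST-Vif; retest series ran down from 100 µM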
# * hit, by the source's call; ? = inconclusive; / = not tested or not shown. Random draw from the library (roughly 2.1% active in at least one column).
canonical_smiles,Ecoli growth,Bfl-1 A1 inh,B2AR ag,LANA-H2A inh,HNF4A DNA FP,Vif TR-FRET,UCH37 inh
COc1ccc(CNC(=S)NCc2ccc(F)cc2)cc1,0.68,0.5,-8,-4.8,-2.8,/,1.3
CC(=O)n1cc(N(C(=O)CCl)c2ccccc2)c2ccccc21,0.64,1.9,-12,-1.6,-2.9,?,3.4
COC(=O)C(C)Sc1nnc(Cc2cc(=O)[nH]c(=O)[nH]2)n1-c1cccc(OC)c1 (stereo not drawn),0.73,-0.2,-4,-5.1,0.5,4%,0.1
CCN(CC)C(=O)[C@H]1C[C@H](CC(=O)NCCN2CCOCC2)C(=O)N2CCc3c([nH]c4cc(-c5ccco5)ccc34)[C@]12C,0.7,/,-2,/,3.2,5%,-20
Cc1ccc(/C=N/NC(=O)c2nnn(-c3nonc3N)c2CN(C)c2ccccc2)s1,/,-0.3,3,-1.4,-4.4,/,/
O=C(c1ccc(F)cc1)N1CCCC(C(=O)N2CCc3ccccc3C2)C1 (stereo not drawn),0.62,0.5,5,6.8,-1.1,?,2.0
COc1ccc2c(c1OC)C(=O)OC2CC(=O)O (stereo not drawn),0.67,0.5,1,-3.0,1.2,-4%,-4.3
Cc1csc(SCC(=O)Nc2ccc3[nH]c(=O)[nH]c3c2)n1,0.68,0.2,0,-3.4,3.1,-8%,-0.5
COC(=O)c1ccccc1NC(=O)CN1C(=O)c2ccccc2C1=O,0.65,0.1,-3,0.7,1.9,/,4.7
O=C(/C=C/c1ccc(Cl)cc1Cl)N1CCN(c2ccccc2[N+](=O)[O-])CC1,0.77,0.5,0,-6.6,-3.3,/,0.4
O=C(N/N=C/c1c[nH]c2ccccc12)c1ccn(Cc2ccc(Cl)cc2Cl)n1,/,0.6,6,5.3,0.5,?,/
CC(C)OC(=O)CSc1nc2c(cc1C#N)CCCCC2,0.69,-0.2,10,-0.4,1.2,11%,-4.2
Cc1cc(C(=O)NCCC(C)C)c2ccccc2n1,0.82,-0.2,-3,1.7,3.5,?,1.7
CCOC(=O)c1nnn(-c2nonc2N)c1C,0.64,0.7,0,2.4,1.1,16%,1.1
Nc1cc(S(=O)(=O)O)cc([N+](=O)[O-])c1O,0.63,0.7,-2,1.1,-35,?,4.8
CCCn1nc(C(=O)OCC(=O)Nc2ccc(C)cc2)c2ccccc2c1=O,0.72,-0.2,0,1.4,-0.3,-6%,3.2
CCc1ccc(C2CC(=O)Nc3c2c(=O)nc2c(C)cccn32)cc1 (stereo not drawn),0.69,2.1,2,2.6,-3.6,-16%,-7.2
CCN(C(=O)COC(=O)Cc1cccc2ccccc12)C1CCS(=O)(=O)C1 (stereo not drawn),0.68,0.1,0,-5.0,1.5,-6%,0.4
CCCCC(=O)NC(c1cccc([N+](=O)[O-])c1)c1ccc2cccnc2c1O (stereo not drawn),0.59,/,6,/,-5.3,/,-1.1
COC(=O)c1sc2ncccc2c1OCc1ccc(Cl)cc1,0.67,-0.4,10,2.6,0.5,7%,0.5
O=C(NC1CC1)C1CCN(C2CCN(C(=O)CSc3ccccc3)CC2)CC1,0.72,0.3,-8,-3.6,-1.3,?,-2.2
Cc1ccc(C)c(-n2c(CNC(=O)c3ccco3)nnc2SCC(=O)Nc2nccs2)c1,0.71,0.4,-2,-1.8,0.8,?,3.5
COc1ccc(S(=O)(=O)N(CCC(N)=O)Cc2ccco2)cc1OC,0.64,-0.6,3,-0.3,-2.7,-8%,2.4
Cc1cc(CNC(=O)Cn2cc([N+](=O)[O-])cn2)c2ccccc2n1,0.73,1.8,12,-0.1,3.9,-1%,0.7
O=C(NNC(=S)Nc1ccc(Br)cc1)c1ccccc1Br,0.68,-0.2,-3,2.5,-3.4,/,1.2
O=C(NCc1ccc(F)cc1)c1noc2c1CCCC2,0.73,-0.3,-5,-1.5,1.2,-3%,4.1
N#CCNC(=O)c1nn2c(C(F)(F)F)cc(-c3ccccc3)nc2c1Br,0.69,-0.2,-23,-2.0,1.7,-21%,-14
O=C(NC(Nc1nc2ccccc2s1)(C(F)(F)F)C(F)(F)F)c1ccccc1,0.67,0.0,15,-0.7,-2.2,-9%,2.7
N#C/C(=C\C1=C(N2CCOCC2)C(=C\c2ccccc2)/CC1)C(=O)Nc1ccccc1F,0.73,/,-207,/,87,/,12
COc1ccccc1/C=C/C(=O)N1CCC(c2ccccc2)C1 (stereo not drawn),0.72,-1.6,-6,-5.6,3.7,-9%,-1.9

# One compound at a time (already shown).
# COc1ccc(S(=O)(=O)N(CCC(N)=O)Cc2ccco2)cc1OC as listed: Ecoli growth: 0.64; Bfl-1 A1 inh: -0.6; B2AR ag: 3; LANA-H2A inh: -0.3; HNF4A DNA FP: -2.7; Vif TR-FRET: -8%; UCH37 inh: 2.4
# O=C(/C=C/c1ccc(Cl)cc1Cl)N1CCN(c2ccccc2[N+](=O)[O-])CC1 as listed: Ecoli growth: 0.77; Bfl-1 A1 inh: 0.5; B2AR ag: 0; LANA-H2A inh: -6.6; HNF4A DNA FP: -3.3; Vif TR-FRET: /; UCH37 inh: 0.4

# (cont.)
canonical_smiles,Ecoli growth,Bfl-1 A1 inh,B2AR ag,LANA-H2A inh,HNF4A DNA FP,Vif TR-FRET,UCH37 inh
CCOC(=O)c1c(C)[nH]c(C2=NNC(=NC(C)COC)SC2)c1C (stereo not drawn),0.69,-0.3,6,1.1,-2.4,13%,8.4
O=C(/C=C/c1cccs1)NC(=S)NNC(=O)Cc1cccs1,0.73,-0.3,1,1.5,0.2,18%,1.5
COc1ccc(CN2CCN(Cc3c[nH]c4ccccc34)CC2CCO)c(F)c1 (stereo not drawn),0.67,0.1,8,-7.3,0.5,/,-0.5
CCc1ccc(Sc2cc(C(=O)NCCN3CCOCC3)c3ccccc3n2)cc1,0.69,0.3,-3,-3.6,-0.6,-2%,3.1
CNc1nc(Oc2ccc(=O)n(C)n2)nc(N2CCOCC2)n1,0.76,0.1,0,0.9,0.2,4%,0.5
CCn1c(=Nc2ccc(N3CCOCC3)cc2)ccc2ccccc21,0.74,0.5,-3,-2.1,-2.3,4%,8.1
O=C(CN1C(=O)NC2(CCCc3ccccc32)C1=O)NCc1ccc(Cl)cc1Cl (stereo not drawn),0.72,-0.4,-2,-2.8,4.4,/,1.5
COc1ccccc1N(C)S(=O)(=O)c1ccc(C(=O)OCC(=O)Nc2ccccc2F)cc1,0.7,0.7,0,3.0,-0.7,?,0.3
COc1ccccc1NC(=S)N1CCN(C(c2ccccc2)c2ccccc2)CC1,0.73,0.7,8,-2.8,-3.6,2%,5.7
COc1ccc(CN2CCNC(=O)C2CC(=O)N(C)CCCN2CCOCC2)cc1C (stereo not drawn),0.68,-0.9,5,0.3,4.5,/,2.2
CCOC(=O)C(C)Oc1cccc2c(=O)n(CC(=O)N3CCCc4ccccc43)ccc12 (stereo not drawn),0.68,/,26,-9.3,3.4,-1%,2.5
Cc1ccc(-n2ncc3c(NCc4cccnc4)ncnc32)c(C)c1,/,-0.4,7,-2.1,3.1,3%,2.7
Fc1ccccc1N=C1Nc2cccc3cccc1c23,0.73,-0.9,-6,-2.1,2.5,3%,6.7
CN(CCOc1ccccc1)CC(=O)Nc1cccc(Br)c1,0.67,-0.3,-2,12,0.9,8%,2.6
Cc1cc2oc(C(=O)Nc3nonc3C)c(C)c2cc1C,0.71,-3.0,1,-4.1,-0.7,/,3.0
CSc1ccc(/C=C2\C(=N)N3N=C(CC(=O)N4CCCCC4)SC3=NC2=O)cc1,/,0.6,2,-5.9,17,/,/
Cc1[nH]n(-c2ccccc2)c(=O)c1N=Nc1cccc(C(=O)O)c1,0.71,-1.6,-3,-5.6,2.1,/,16
CCOC(=O)C1=C(C)Nc2ccccc2N/C1=N\S(=O)(=O)c1cc(C(=O)O)ccc1Cl,0.75,-0.3,-1,4.8,-7.3,/,2.8
Cn1c(SCC(=O)N2CCCCC2)nc2c([nH]c3ccccc32)c1=O,0.74,0.7,-8,-5.0,0.1,6%,8.2
CCN(CC)S(=O)(=O)c1cccc(C(=O)Nc2ccccc2)c1,0.72,-2.9,-6,-3.1,4.1,-1%,4.0
O=C(C(F)C(F)(F)F)N1CCN(c2ccccc2)CC1 (stereo not drawn),0.71,-0.1,13,8.1,-0.7,23%,1.0
Cc1c(C(N)=O)sc(N)c1C(=O)OC(C)C,0.69,0.9,-10,-1.1,-0.4,-3%,3.8
COC(=O)c1nn(-c2ccccc2)c(=O)cc1O,0.69,1.4,-3,1.4,3.8,/,5.3
Cc1n[nH]c(C)c1S(=O)(=O)N1CCC(C(=O)Nc2cccc(F)c2)CC1,0.68,-0.2,16,-4.0,-0.5,11%,1.3
Cc1c(NC(=S)NC(C)(C)C)c(=O)n(-c2ccccc2)n1C,0.71,0.4,5,8.4,-1.0,2%,3.0
COc1ccc(N2CCN(C(=O)CCc3ccccc3)CC2)cc1,0.66,0.5,3,-2.5,-0.5,-2%,3.9
C[C@H]1CC[C@]2(O[C@H](CCO)C[C@@H](O)[C@@H]2O)O1,/,-0.9,6,-6.8,0.4,/,3.2
N#C/C(=C\c1ccccc1)C(=O)Nc1cccnc1,0.67,-0.2,-6,-4.7,-0.8,9%,3.1
COc1ccc(CNC(=O)COC(=O)/C=C/c2cccs2)cc1,0.7,-0.4,6,-1.4,2.4,-1%,3.4
c1ccc(-c2nnc(CSc3nncs3)o2)cc1,0.7,1.1,-5,-3.8,0.9,-1%,1.6
CCOC(=O)C1CCN(C(=O)CCS(=O)(=O)c2ccc3c(c2)CCN3C(=O)CC)CC1,0.69,0.7,-9,-1.8,6.4,-4%,4.5
Cn1nc(C(=O)Nc2ccccc2N2CCCC2)c2ccccc2c1=O,0.72,0.9,2,3.3,2.1,2%,1.5
O=c1[nH][nH]c(=O)c2cc(N3CCCC3)ccc12,0.66,0.2,-2,0.5,-3.5,10%,-29
O=C(CC(Cc1ccccc1)c1ccco1)NC1CCCCC1 (stereo not drawn),0.74,0.9,-3,0.6,-0.3,29%,3.6
CS(=O)Cc1cc(Oc2ccccc2)nc(-c2ccncc2)n1 (stereo not drawn),0.67,0.1,-1,2.2,-2.3,?,2.1
CCOC(=O)c1c(C)nc(C(Cl)(Cl)Cl)nc1N,0.68,-0.1,-3,-5.6,2.3,/,-1.0
CCOc1ccc(NC(=O)COC(=O)c2ccc3c(c2)OCO3)cc1,/,0.0,6,2.1,-1.1,-4%,/
Cc1ccc(SCC(=O)NC(=O)Nc2ccc3c(c2)OCCO3)cc1C,0.67,-0.3,8,-6.3,-1.8,-2%,1.5
NC1=C([N+](=O)[O-])C(c2ccc3c(c2)OCO3)C2=C(CCCC2=O)O1 (stereo not drawn),0.69,2.5,10,1.0,4.0,/,8.5
O=C(Nc1ccc2c(c1)OCO2)C1CCN(Cc2cnn(-c3ccccc3)c2-n2cccc2)CC1,0.71,0.0,-4,2.0,0.1,4%,-1.1
COC(=O)C1=CN(c2ccc(F)c(F)c2)C=C(C(=O)OC)C1c1ccc([N+](=O)[O-])cc1,0.75,0.8,5,2.1,-4.9,/,0.5
O=C(Nc1ccc2c(c1)OCO2)c1ccc[n+]([O-])c1,0.71,0.1,-3,-1.6,0.9,0%,0.2
CSc1ncccc1C(=O)OCC(=O)N1CC(=O)Nc2ccccc21,0.65,-0.5,-9,-35,-3.0,-4%,3.3
Cc1cccc(NC(=O)c2ccc(COc3ccc4ccccc4c3)o2)n1,0.67,-0.7,10,-2.8,1.3,6%,3.5
O=C(NCc1ccccn1)C(=O)NCC1OCCN1S(=O)(=O)c1ccc(Br)cc1 (stereo not drawn),0.69,-1.2,3,4.0,2.1,/,2.4
CCOc1ccc(NC(=O)CN(c2cccc(C(F)(F)F)c2)S(C)(=O)=O)cc1,0.69,-0.5,4,-7.0,-0.2,1%,2.6
